Sa ugtP lethal: growth inhibition of S. aureus ugtP deletion strain; S. aureus RN4220 ugtP deletion, OD600 growth, 16 h; some inactives read as strong as hits; growth inhibition, % (concentration not given with the values); 330,000 compounds, 0.54% hits;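 active = z-score under -3 and OD600 up to 0.15 on both plates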;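 also: plate controls were untreated wells for no effect and antibiotic for full effect; wells of about 80 µL received 100 nL stock; the first replicate is given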
BJeLR lethal: kills HRASV12-expressing BJeLR cells | BJeLR (HRASV12) viability, CellTiter-Glo ATP luminescence, 48 h; reference of the scale not given here | inhibition, % (no concentration beside the values) | AID 1554 | 300,000 compounds, 0.17% hits;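 active = replicate mean above 50%; inconclusive = above 50% but judged a plate artefact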;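 also: 50 nL library stock added to about 25 µL; numbers are from one replicate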
Autofluor counter: counter-screen for toxin protease inhibitors: compound fluorescence; compound autofluorescence counterscreen, microsphere flow cytometry; hits give high values; fluorescence intensity (no concentration beside the values); 360,000 compounds, 3.1% hits;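 active = at least 3 SD above the mean of all compounds, about 16000 in these data; inconclusive = too few beads counted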;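 also: 100 nL of 1 mM stock went into each well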
PrP UTR inh: suppresses PrP 5' UTR mRNA reporter expression. AID 488862. 340,000 compounds, 0.35% hits. inhibition, % (concentration not given with the values). cell-based PrP 5' UTR mRNA reporter, plate reader;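 active = every replicate at 50% or more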;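 also: 0 = median of the neutral control wells; tested in H4 reporter cells; numbers are from one replicate; inactives centre near -14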
Sa RN4220 lethal: S. aureus RN4220 growth inhibition | 330,000 compounds, 0.33% hits | inhibition, % (no concentration beside the values) | AID 1259311 | OD600, 16 h;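 active = z-score of -3 or lower and OD600 up to 0.18 on both plates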;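 also: plate controls were untreated cells for no effect and reference antibiotic for full effect; stock transfer was 100 nL into about 80 µL; one replicate is shown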
Mtb hypoxia rep: Mtb hypoxia fluorescent reporter inhibition; 300,000 compounds, 0.1% hits; fluorescence inhibition, % (test concentration not listed); M. tuberculosis hypoxia-regulated fluorescent reporter, fluorescence;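 active = 35 to 45% if threefold the growth effect, above 45% if 1.5-fold the growth effect; inactive = the rest, general growth blockers included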;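 also: wells of about 50 µL received 100 nL stock; 0% = vehicle wells and 100% = reference inhibitor wells; whole bacteria with a GFP reporter of the hypoxia response; strong numbers were not always called active; many hits fall short of the cut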
Mtb hypoxia rep growth: second read-out of Mtb hypoxia rep, no call of its own (marks repeat the call); growth inhibition, %; measured here: M. tuberculosis growth (absorbance);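 0% = vehicle and 100% = reference antibiotic; read after six days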
* = called active by the depositor; ? = inconclusive; / = no result given.

SMILES	Sa ugtP lethal	BJeLR lethal	Autofluor counter	PrP UTR inh	Sa RN4220 lethal	Mtb hypoxia rep	Mtb hypoxia rep growth
CCN(CCN1CCCC1)C(=O)C1CCC(=O)N(CCCN2CCOCC2)C1 (configuration not stated)	9	5	4626	-23	2.0	-2	-8
Nc1nnc(CCN2CCCCC2)s1	7	-3	3370	-19	5.3	10	13
CC(C#N)Sc1ccc(S(=O)(=O)N2CCCCC2)cn1 (configuration not stated)	9	/	3015	-10	5.6	8	-10
CC1CCCC(NC(=O)COC(=O)c2cn(C)c3ccccc23)C1C (configuration not stated)	-3	/	3801	-5	4.4	0	6
CCOc1ccc(/C=N/NC(=O)C(C)Sc2ccccn2)cc1OCC (configuration not stated)	/	-2	2003	12	/	/	/
COc1ccc(Cn2nnnc2C(c2cc(OC)ccc2OC)N2CCC(C(N)=O)CC2)cc1 (configuration not stated)	9	14	3796	-17	-0.8	/	/
Cc1ccn2c(NC(=O)c3ccccc3)c(-c3cccs3)nc2c1	2	-3	15342	-77	4.8	-2	-6
CCN(C(=O)CSc1n[nH]c(N)n1)c1cccc2ccccc12	6	/	6091	-10	3.3	3	3
Cc1ccc2nc(Cl)c(C3CC(c4ccco4)=NN3C(=O)CCCC(=O)O)cc2c1 (configuration not stated)	-7	9	4785	-32	1.3	6	-4
CCOC(=O)C12CNC(=O)C(C(=O)OCC)(CNC1=O)C2	-2	3	3013	-2	-14	15	-28
CCOC(=O)c1cnc(SCC(=O)Nc2ccc(NC(C)=O)c(OC)c2)nc1N	2	2	?	-15	1.0	-1	-4
O=C(NC1CCCCC1)C(c1ccc(F)cc1)N(C(=O)c1csnn1)C1CCCC1 (configuration not stated)	13	-12	5073	-5	5.1	3	8
CCN(CC)CCCNC(=O)c1cc2nc3c(c(C(F)(F)F)n2n1)CCc1ccccc1-3	36	4	4043	-20	-4.7	-13	-1
CCCCC(=O)OCc1nc(N)nc(Nc2ccccc2C)n1	4	-5	2591	-7	6.2	-16	1
O=C(CC1c2ccccc2Oc2ccccc21)N1CCN(c2ccccn2)CC1	-9	-7	12258	-11	6.4	7	13
CC(C)(C)SCCNC(=O)CN(c1ccccc1)S(=O)(=O)c1ccc(F)cc1	-7	-8	4451	-13	-2.6	-4	2
CC1CCc2c(sc(NC(=O)c3ccc(-c4ccccc4[N+](=O)[O-])o3)c2C#N)C1 (configuration not stated)	-8	6	4193	-32	8.8	8	7
CC(=O)Nc1ccc(NC(=O)CCSCCc2ccccn2)cc1	4	13	4287	-3	4.4	-4	0
CCC1=NN2C(=N)/C(=C/c3ccc(OS(=O)(=O)c4ccccc4)cc3)C(=O)N=C2S1	2	-4	6544	-32	3.8	-1	-3
COc1ccc(C(NC(=O)C2C3C=CC(C3)C2C(=O)O)c2ccccc2)cc1 (configuration not stated)	-3	-12	4075	-8	-0.6	-3	7
NC(=O)CSc1nc2ccc([N+](=O)[O-])cc2[nH]1	6	-2	4744	-2	0.8	9	8
Cc1ccc(S(=O)(=O)N2CCCCC2)cc1NC(=O)CCc1nc2ccccc2c(=O)[nH]1	0	4	?	-4	3.0	-10	0
COc1ccc(C(=O)/C=C/c2ccc(OC3CSC3)cc2)cc1OC	-7	4	2126	-14	19	2	-5
O=C(NCC1CCCO1)c1ccccc1-c1nc(-c2ccc(F)cc2)no1 (configuration not stated)	2	4	5683	-11	3.1	/	/
CCOC(=O)c1c(COC(=O)c2ccco2)nc2ccccc2[n+]1[O-]	7	-9	4280	-19	1.5	/	/
Cc1ccc(N2C(=O)C3ON(c4ccccc4)C(CC(C)C)C3C2=O)cc1 (configuration not stated)	7	-5	4103	-16	0.1	-10	13
CCc1noc(C)c1C(=O)Nc1cc(C(F)(F)F)ccc1-n1cncn1	2	6	/	-7	-1.0	-1	4
Cc1ccc(C(=O)Nc2ccc(Nc3ccccc3)cc2)c(Cl)c1	8	-3	3081	-8	2.6	13	7
CC1(C)C(=O)Nc2ccccc2N1C(=O)COC(=O)CNS(=O)(=O)c1ccc(Br)cc1Cl	1	/	7669	-8	3.4	3	3
CN(CC(=O)Nc1ccccc1)CC(=O)Nc1ccc(F)cc1	7	-4	3237	-27	2.2	-1	9

For reference, some entries already given.
SMILES	Sa ugtP lethal	BJeLR lethal	Autofluor counter	PrP UTR inh	Sa RN4220 lethal	Mtb hypoxia rep	Mtb hypoxia rep growth
NC(=O)CSc1nc2ccc([N+](=O)[O-])cc2[nH]1	6	-2	4744	-2	0.8	9	8
Cc1ccc(S(=O)(=O)N2CCCCC2)cc1NC(=O)CCc1nc2ccccc2c(=O)[nH]1	0	4	?	-4	3.0	-10	0

Other records follow:
SMILES	Sa ugtP lethal	BJeLR lethal	Autofluor counter	PrP UTR inh	Sa RN4220 lethal	Mtb hypoxia rep	Mtb hypoxia rep growth
NC(=O)C1CCN(C(=O)CNC(=O)c2ccc(Br)o2)CC1	8	4	5188	-21	3.8	-6	-4
O=C1C=C(Nc2ccccc2O)c2ccccc2C1=O	71	-5	9569	-67	77	13	9
N#CCSc1nc(-c2ccccc2)nc2ccccc12	-1	-2	3366	-15	0.8	-14	11
CCC1=C2CCC3C(=O)N(CC)C(=O)C3C2[C@@]2(Cc3ccccc3)C(=O)N(Cc3ccccc3)C(=O)N2C1=O (some centres not stated)	2	/	/	/	11	1	-1
O=C(CCc1nnc(CCc2ccccc2)o1)NC(c1cccnc1)C(F)(F)F (configuration not stated)	3	3	4024	10	5.1	5	0
CN(C)CCNc1c2c(nc3nnnn13)CCCC2	7	-2	4455	-17	8.6	4	6
CCn1c(=O)c2ccccc2n(Cc2cccc([N+](=O)[O-])c2)c1=O	8	-6	3006	-7	1.1	9	3
CC1CCc2c(sc(/N=C/c3ccco3)c2C(N)=O)C1 (configuration not stated)	/	-11	3194	-61	/	/	/
COc1ccc(C(=O)C2CCCN(Cc3ccc(C)s3)C2)c(OC)c1 (configuration not stated)	9	6	4491	-33	2.3	1	11
COc1ccc(C=NNC(=O)c2ccc(NC(C)=O)cc2)cc1COc1ccc(F)cc1F	0	/	/	/	2.1	-6	4
O=C1C(=O)N2C(=C1C(=O)N1CCCCCC1)c1ccccc1CC21CCCC1	9	4	5692	1	0.8	20	8
Brc1ccc(OCCn2ccnc2)cc1	3	-1	9196	-14	0.9	20	5
COc1ccc(Nc2nc(NN=Cc3ccc(N(C)C)cc3)nc(C)c2[N+](=O)[O-])cc1	-6	/	/	/	-0.4	3	2
N#Cc1ncccc1CCc1cccc(Cl)c1	-3	-8	6001	-30	6.8	16	8
COc1cc2c(cc1OC)C1(CCCC1)CNC2c1ccc([N+](=O)[O-])cc1 (configuration not stated)	3	6	4476	-7	0.0	14	7
Cc1[nH][nH]c(=O)c1C(c1ccc(-c2cccc(Cl)c2)o1)c1c(C)[nH][nH]c1=O	44	5	4610	-9	15	17	0
Cc1cc(/C=C(/C#N)C(=O)Nc2ccccc2)c(C)n1-c1cccnc1	-10	0	3330	-82	-7.1	8	13
CC(OC(=O)CCN1C(=O)C2CC=CCC2C1=O)C(=O)c1ccc(F)cc1 (configuration not stated)	5	/	3193	-12	1.4	4	-5
CCOc1ccc(C(=O)NCCc2ccccc2)cc1	5	10	7864	21	-2.6	6	-1
CCOC(=O)c1[nH]c(C)c(C(=O)OCC(=O)N(C)C2CCS(=O)(=O)C2)c1C (configuration not stated)	5	3	3183	-22	7.1	10	5
CCOc1ccc(NC(=O)c2ccccc2CO)cc1	2	0	2343	-49	0.0	/	/
O=C(CCS(=O)(=O)c1ccc(F)cc1)Nc1nc(-c2ccncc2)cs1	9	0	6060	5	3.7	2	-4
CCCN(CC(=O)Nc1ccc(F)c(F)c1F)C(=O)Cc1ccc(OC)c(S(=O)(=O)N2CCOCC2)c1	0	/	4210	-9	-1.3	3	10
COc1cccc(-c2nc(CS(=O)(=O)CC(=O)Nc3cc(C)ccc3C)c(C)o2)c1	-5	-1	5846	-18	-10	6	5
CC1=NC(=O)C(N=Nc2cccc(C(=O)O)c2)N1c1ccccc1 (configuration not stated)	-18	/	7702	-26	29	7	2
O=C(/C=C/c1cccc(Cl)c1)Nn1c(-c2cccs2)nc2ccccc2c1=O	-13	-5	2185	-32	0.8	-1	4
COc1ccc(S(=O)(=O)N(C)C)cc1NC(=O)c1ccc(OCC(=O)N2CCOCC2)c(OC)c1	3	-7	6180	-27	4.1	-1	-4
Cc1ncsc1CCOC(=O)c1ccc(Cl)cc1	2	4	4995	-2	13	9	7
CCNc1nc(NCC)n2c(SCC(=O)Nc3ccc(OC)c(OC)c3)nnc2n1	5	0	5171	0	1.1	4	4
COc1ccc2c(c1OC)C(=O)N(c1ncn[nH]1)C2	6	8	3768	-4	8.8	8	1
O=c1[nH]nc(Cc2ccc(Cl)cc2)c2ccccc12	-5	-1	4479	-5	-0.1	/	/
CCC1(CC)NC(=O)N(CC(=O)OC(C)C(=O)Nc2ccccc2OC)C1=O (configuration not stated)	2	-4	?	-14	1.5	4	8
O=C1Nc2cc3c(cc2Sc2ccccc21)OCCO3	5	-7	2436	-19	4.8	8	10
Cc1ccccc1-n1c(=O)cc(NCC2CCCO2)[nH]c1=O (configuration not stated)	12	-5	8007	-6	4.1	3	-5
NC(=O)C1CCN(C(=O)COc2ccc(S(=O)(=O)NCc3ccccc3)cc2Cl)CC1	2	8	9683	-12	1.2	7	5
Cc1c(OC(=O)CNC(=O)OC(C)(C)C)ccc2c3c(c(=O)oc12)CCC3	-2	/	6157	3	1.3	1	11
O=C(Nc1ccc(Cl)c(Cl)c1)Nn1cnnc1	/	8	4026	-17	/	/	/
O=C(c1cccc(S(=O)(=O)Nc2ccc(F)cc2)c1)N1CCOCC1	6	/	5895	-20	3.6	3	1
Cc1csc2c(=O)n3c(nc12)CCCCC3	-2	-5	9655	-41	0.4	5	8
CC(C)C1C(C#N)=C(N)Oc2n[nH]c(-c3ccccc3)c21 (configuration not stated)	-9	-5	2849	-15	4.3	/	/
CCn1c(SCC(N)=O)nc2sc3c(c2c1=O)CCCC3	65	9	3481	-9	-15	10	11
Cc1ccc(CNC(=O)c2nn(C)c(C)c2[N+](=O)[O-])cc1	11	-8	2506	2	6.1	19	12
COc1ccc(Cl)cc1NC(=O)Nc1ccc(C(=O)N2CCOCC2)cc1	7	-5	4653	-7	-2.8	3	-1
Cc1c(NC(=O)C2CCN(S(=O)(=O)c3ccc(Cl)cc3)CC2)c(=O)n(-c2ccccc2)n1C	5	-8	9877	-24	4.6	12	9
CCOc1ccc(S(=O)(=O)Nc2ccc(C(=O)NCC(c3ccc(OC)cc3)N3CCOCC3)cc2)cc1 (configuration not stated)	8	/	3071	-13	3.6	7	-3
COc1cc(OC)cc(-c2c(C#Cc3ccsc3)c3cc(-c4ccc5c(c4)OCO5)ccc3n2C)c1	-2	/	3681	-5	4.3	-5	9
COc1ccccc1OCCSc1nnnn1-c1ccc(C)cc1	4	1	4102	-31	12	8	12
COCCCNC(=O)c1ccccc1N(Cc1ccccc1)S(=O)(=O)c1ccc(OC)cc1	-4	-4	4010	-29	3.6	-13	-1
Cc1ccc(P(=O)(CC(=O)O)c2ccc(C)cc2)cc1	-1	26	24105*	-14	17	5	5
O=C(CN1C(=O)NC2(CCCCCCC2)C1=O)NCc1ccc(F)cc1	-1	/	4895	/	-2.6	7	7
Next section.
SMILES	Sa ugtP lethal	BJeLR lethal	Autofluor counter	PrP UTR inh	Sa RN4220 lethal	Mtb hypoxia rep	Mtb hypoxia rep growth
COC(=O)[C@@]1(Cc2ccc(OC)cc2)[C@H]2c3cc(C(=O)N(C)C)n(Cc4c(CO)[nH]cc(C)c4=O)c3C[C@H]2CN1C(=O)c1ccccc1	/	-3	3266	-18	/	/	/
COc1ccc(/C=N/NC(=O)CO/N=C(\C)c2cccs2)cc1	/	1	3290	2	/	/	/
O=C1CSC(=Nc2cccc(Cl)c2Cl)N1Cc1cccnc1	-5	1	4618	-7	2.4	6	11
Cc1ccc(C)c(Nc2nc3ccccc3n3cnnc23)c1	-4	4	4942	-12	4.3	17	-5
CCCCn1c(O)c(N=Nc2ccccc2O)c2ccccc21	6	/	4608	-4	-3.2	-3	2
CC1CCN(C(=O)c2[nH]cnc2C(=O)N(C)Cc2ccccc2)CC1	0	/	4076	-14	5.2	-4	0
CCCN(C(=O)c1cn(-c2ccccc2)nc1-c1ccc(OC)cc1)C1CCS(=O)(=O)C1 (configuration not stated)	2	-3	5010	-9	1.0	0	0
